Assay outcomes: PubChem, several laboratories
Ecoli rRNA inh: inhibits bacterial ribosomal RNA function over humanized ribosomes; E. coli WT GFP vs humanized-ribosome RFP mutants, fluorescence, 24 h; active compounds read low; DMSO median 0, no signal -100; GFP signal change (wild-type ribosome), % (test concentration not listed); 350,000 compounds, 1.6% hits;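 active = significant combined selectivity score with lowered wild-type GFP, culture density cut under 30%, mutant RFP and density less affected; inactive = any of these conditions unmet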; note: one replicate is shown; some compounds called inactive have numbers as strong as hits
Beta apoptosis: blocks beta cell apoptosis; AID 435005; 300,000 compounds, 0.8% hits; protection from apoptosis, % (concentration not given with the values); INS-1E cytokine-induced death, ATP luminescence, 48 h; percent of positive-control rescue, neutral wells zero;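 active = all replicates at 75% or more, or half of them and the mean; inconclusive = half reach 75% but not the mean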;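 note: 0% = cytokine-treated negative control wells and 100% = positive control rescue; higher means more ATP so stronger rescue from cytokine killing; wells of about 40 µL received 100 nL stock; the first replicate is given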
RanGTP-Impb inh: disruptors of Ran-importin-beta complex formation – biochemical, FRET, CFP-Ran, YFP-importin-beta, homogeneous, primary screen; cell-free CFP-Ran/YFP-importin-beta FRET ratio; inhibition, % (test concentration not listed); 300,000 compounds, 1.1% hits; AID 2216;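 active = most replicates above 15%; inconclusive = exactly half above 15%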;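 note: 0% = DMSO wells and 100% = Ran loaded with GDP instead of GTP; wells of about 40 µL received 100 nL stock; the first replicate is given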
A1 inh: inhibitors of the anti-apoptotic protein A1, read as caspase activation | MEF A1-2A-BIM cells, Caspase-Glo 3/7 luminescence, 3 h; percent of clofoctol response, vehicle zero | caspase activation, % (test concentration not listed) | 330,000 compounds, 0.066% hits;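 active = over half of replicate activation scores above 10%, or exactly half above 10 with the replicate mean above 10; inconclusive = replicate mean below 10 yet half the replicates above 10; inactive = over half of replicates below 10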;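 note: wells of about 30 µL received 50 nL stock; many hits fall short of the cut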
AF4-AF9 inh: blocks AF4 peptide binding to human AF9 | AlphaScreen, biotin-AF4 peptide binding to FLAG-AF9 | P42568 | inhibition, % at 10 µM | 350,000 compounds, 0.47% hits;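 active = every replicate reaching a set inhibition limit, whatever the replicate mean, cut at about 25% in these data; inconclusive = mean inhibition reaches that limit but some replicates miss it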;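 note: 0% = plate neutral control median and 100% = total signal loss; the record names both 10 and 1 µM as test concentration; the first replicate is given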
Target sequence (P42568 whole entry, looked up): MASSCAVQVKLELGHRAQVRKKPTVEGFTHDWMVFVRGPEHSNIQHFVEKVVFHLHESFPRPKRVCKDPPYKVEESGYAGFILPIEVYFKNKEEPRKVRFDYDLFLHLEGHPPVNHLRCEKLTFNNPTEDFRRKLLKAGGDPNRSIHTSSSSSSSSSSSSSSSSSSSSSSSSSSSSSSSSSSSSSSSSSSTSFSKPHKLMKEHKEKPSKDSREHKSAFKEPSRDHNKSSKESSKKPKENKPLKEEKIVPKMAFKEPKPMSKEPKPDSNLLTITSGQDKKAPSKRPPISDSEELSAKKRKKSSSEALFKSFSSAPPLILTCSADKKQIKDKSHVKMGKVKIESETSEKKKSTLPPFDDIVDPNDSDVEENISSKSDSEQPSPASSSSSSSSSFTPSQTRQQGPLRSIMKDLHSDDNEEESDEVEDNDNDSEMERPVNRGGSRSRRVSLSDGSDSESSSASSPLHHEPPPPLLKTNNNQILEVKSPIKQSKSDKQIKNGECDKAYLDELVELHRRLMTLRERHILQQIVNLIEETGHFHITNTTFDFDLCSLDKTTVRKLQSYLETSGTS
T cruzi inh: blocks replication of Trypanosoma cruzi; T. cruzi beta-gal in NIH3T3, luminescence, 90 h; inhibition, % (test concentration not listed); 300,000 compounds, 1.4% hits; AID 1885;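 active = mean inhibition across valid replicates above about 55%, limit read from the data; inconclusive = mean below that limit but half or more replicates reach it; inactive = mean below it, under half of replicates reach it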;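 note: signal also drops with host cell toxicity which is not excluded here; 0% = plate median of DMSO wells and 100% = zero luminescence signal; higher percent means less beta-gal luminescence so fewer parasites; stock transfer was 50 nL into about 50 µL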
Calb FLC: affects C. albicans growth with fluconazole; growth inhibition, % (no concentration beside the values); 300,000 compounds, 0.57% hits; C. albicans CaCi-2 (fluconazole-resistant clinical isolate) + fluconazole, Alamar Blue growth, 48 h; AID 1979;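 active = most replicates above 75%; inconclusive = exactly half above 75%; inactive = most below 75%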;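 note: all wells also contain fluconazole at 8 µg/ml as a sub-toxic cotreatment; 0% = median of DMSO wells and 100% = median of geldanamycin control wells; wells of about 8 µL received 7.5 nL stock; the first replicate is given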
Vif TR-FRET: HIV-1 Vif–A3G interaction blockers – biochemical, TR-FRET, GST-Vif 1-94, biotin-A3G peptide, dose response retest, primary screen (AID 1117319) | TR-FRET GST-Vif / biotin-A3G peptide binding; higher % means a stronger effect; test concentration not given here; strong numbers were not always called active | inhibition, %; hits with a dose series show IC50 in µM | 260,000 compounds, 0.57% hits;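 active = above the screen mean plus three standard deviations and confirmed in dose response; inconclusive = results disagree or hit not tested in dose response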;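 note: Vif residues 1-94 fused to GST binding biotinylated APOBEC3G peptide 110-148; 0% = full assay without inhibitor and 100% = GST in place of GST-Vif; retest series ran down from 100 µM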
Ecoli rRNA inh OD600: recorded beside Ecoli rRNA inh, whose call it bears; OD600 change, %; measured here: OD600 growth;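 optical density of the mix in the first replicate; 0 = DMSO median and -100 = no signal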
Ecoli rRNA inh RFP: recorded beside Ecoli rRNA inh, whose call it bears; RFP signal change, %; measured here: RFP humanized mutant strains;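 first replicate; 0 = DMSO median and -100 = no signal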
Active calls of the source: *; ? = inconclusive; · = no result given. These rows are one share of the data (hit frequency here may not be typical).

SMILES	Ecoli rRNA inh	Ecoli rRNA inh OD600	Ecoli rRNA inh RFP	Beta apoptosis	RanGTP-Impb inh	A1 inh	AF4-AF9 inh	T cruzi inh	Calb FLC	Vif TR-FRET
CC(C(=O)NCc1ccccn1)c1ccc([N+](=O)[O-])cc1 (stereo unspecified)	5.8	1.6	-1.9	0.6	1.1	1.5	-1.5	-6.3	11.3	-3.8%
CC1CCCN(C(=O)C2CCN(CC(C)c3ccccc3)CC2)C1 (stereo unspecified)	·	·	·	-4.0	5.8	-0.3	·	-5.1	2.7	7.0%
O=C(Nc1ccccc1C(=O)NCCCN1CCOCC1)c1ccc(Cl)cc1	8.1	5.4	5.1	-1.7	1.2	0.3	-3.5	9.5	4.6	32.7%
O=C(Nc1ccc(S(=O)(=O)NC2=NCCCCC2)cc1)c1ccc(Cl)cc1Cl	2.5	-1.3	0.6	0.6	-0.5	-0.3	-1.0	4.9	4.5	0.7%
CCCn1c(SCC(=O)c2ccc3c(c2)OCCO3)nnc1-c1ccco1	·	·	·	1.4	2.3	0.3	·	-7.5	-5.7	3.4%
COC(=O)[C@H]1[C@H](c2ccccc2)[C@H](C(=O)OC)O[C@H]1c1ccccc1	-6.6	-10.3	4.6	5.2	5.3	0.5	-2.7	6.0	-2.5	·
COc1ccc(OC)c(/C=C2\Oc3cc(OCC(=O)N4CC(O)C[C@H]4C(=O)O)ccc3C2=O)c1 (stereo partly specified)	-5.4	5.8	-2.0	-8.2	-15.5	0.9	-2.0	-6.8	-3.6	·
O=C(CCC(=O)c1cccs1)NCc1ccccc1	·	·	·	8.6	0.9	0.8	·	-18.4	3.4	?
CCOc1ccc(N(CC(=O)N2CCC(Cc3ccccc3)CC2)S(C)(=O)=O)cc1	-35.5	-52.7	0.7	6.1	0.5	-0.3	1.1	6.2	-2.2	78.0%
NS(=O)(=O)c1ccc(CCN2C(=O)CCC2=O)cc1	10.3	9.2	0.6	-2.9	-2.6	-0.6	-0.6	5.6	-1.9	·
O=C(Nc1ccccc1Br)c1ccc(N2CCCC2=O)cc1	-9.2	-3.8	-1.5	-2.7	-0.5	-2.5	-5.9	-24.1	·	-1.0%
O=C(/C=C/c1cc(Br)ccc1F)OCC(=O)N1CCCC1	8.4	1.9	-0.7	-7.2	·	-1.7	-4.1	·	·	-6.9%
O=C(N/N=C/c1ccc(Cl)cc1)c1cc2c(s1)-c1ccccc1CC2	·	·	·	18.2	-1.2	0.3	·	-38.7	15.4	-0.3%
COc1ccc(NC(=O)N2CCCC2C(=O)NCC2CCCCC2)cc1 (stereo unspecified)	2.8	8.0	-1.8	-2.9	4.1	-0.5	-19.6	-1.4	-6.0	·
COc1ccc(NC(=S)Nc2ccc3nc(C)c(C)nc3c2)cc1	·	·	·	-0.1	?	0.1	·	-7.5	-5.5	?
NS(=O)(=O)c1ccc(CNC(=O)c2cc(-c3cccnc3)nc3ccc(Br)cc23)cc1	13.9	5.8	5.8	5.7	-2.9	-0.6	-9.3	-2.1	-2.3	-10.4%
CCn1cc(C(=O)O)c(=O)c2cc(F)c(N3CCN(C(=S)Nc4ccc(OC)cc4)CC3)cc21	-56.5	-79.1	-25.4	-2.6	-4.4	-0.5	2.2	-14.2	3.1	-2.8%
CCOc1ccc2nc3c(cc2c1)CN(CCCO)C(=NCCOC)S3	·	·	·	1.3	-2.1	-1.5	·	17.0	7.5	10.3%
Cc1cc2nccc(-c3cccnc3)n2n1	14.3	-0.1	-0.1	-8.1	-0.8	0.3	-1.5	9.1	-2.6	-1.5%
C/C=C/C=C/C(=O)OCC(=O)Nc1ccc(Cl)cc1	·	·	·	0.3	3.5	1.4	-3.5	-4.9	-3.9	29.9%
Cc1c(Cl)cccc1NC(=S)NCc1ccccc1	-2.4	-1.3	-3.8	3.5	2.2	-0.6	·	-34.7	14.7	·
CCOc1cc(C2NC(=O)NC(c3ccccc3)=C2C(C)=O)ccc1OC(C)=O (stereo unspecified)	7.0	5.1	0.4	-2.3	-3.3	0.3	0.7	-13.9	17.0	3.0%
Cc1ccc(S(=O)(=O)N2CCOCC2)cc1NC(=O)Nc1ccc([N+](=O)[O-])cc1	17.2	15.8	5.0	2.2	·	0.2	4.1	·	·	-8.4%
Cc1ccc2nc(NC(=O)Cn3nc(C)c([N+](=O)[O-])c3C)sc2c1	·	·	·	-4.6	4.4	-0.7	·	2.5	3.0	1.8%
COC(C/C=C\[C@@H](O)COCc1ccccc1)OC	5.4	11.2	8.1	·	1.0	·	-1.7	-30.5	2.5	-9.1%
The list continues:
SMILES	Ecoli rRNA inh	Ecoli rRNA inh OD600	Ecoli rRNA inh RFP	Beta apoptosis	RanGTP-Impb inh	A1 inh	AF4-AF9 inh	T cruzi inh	Calb FLC	Vif TR-FRET
CCS(=O)(=O)N1CCCC(C(=O)NCc2cccc(OC)c2)C1 (stereo unspecified)	·	·	·	0.0	-3.9	-0.9	·	-5.1	1.7	-3.0%
Cc1ccc(NC(=O)Nc2ccccc2)cc1[N+](=O)[O-]	·	·	·	-8.1	0.2	-1.1	·	21.1	-9.1	2.9%
O=C(Nc1ccc(Cl)c(Cl)c1)c1ccc2c(c1)OCO2	5.7	5.3	0.0	10.4	-0.9	-3.7	-2.5	3.8	-11.7	·
Cc1ccc(CNc2oc(-c3ccco3)nc2C#N)cc1	·	·	·	-2.8	-1.8	0.2	·	-5.7	-10.4	0.7%
CC1CCC(=C(C#N)c2nc(-c3cc4ccccc4oc3=O)cs2)CC1 (stereo unspecified)	·	·	·	5.3	4.5	0.2	·	17.7	51.1	-4.6%
NS(=O)(=O)c1ccc(CNc2ccc3ccccc3n2)cc1	4.5	10.7	-2.9	-5.0	2.4	-0.5	1.7	-12.8	-5.3	-7.8%
COc1ccc(C2c3c(ncn(CCN4CCOCC4)c3=N)Oc3ccc4ccccc4c32)cc1OC (stereo unspecified)	·	·	·	4.4	?	0.2	·	-12.4	-9.7	3.4%
CCn1cc(/C=N\NC(=O)c2ccc(Cl)cc2)cn1	·	·	·	4.5	0.4	0.2	·	-5.8	-7.5	15.1%
C/C(=N\OCC(=O)Nc1nc2ccccc2s1)c1ccccc1	9.0	10.0	0.4	-4.8	-1.7	-2.0	1.8	-0.8	-15.1	·
O=C(c1ccc(Cl)nc1)N1CCN(S(=O)(=O)c2ccccc2)CC1	4.9	3.4	-7.8	1.5	4.1	-0.3	4.9	-6.9	3.3	14.3%
Cc1cc(NC(=O)CSc2nc(Cc3ccccc3)c(C)[nH]2)no1	1.0	2.9	0.7	-8.5	-4.9	1.6	-7.2	-15.3	8.3	·
COc1ccc(CCNCc2cc(C)n(-c3ccc(OC)cc3)c2C)cc1	-17.9	-33.5	2.8	10.7	-0.7	0.5	39.4*	65.5*	-4.7	-1.1%
CCN1CCN(C(c2cccs2)C(C)NC(=O)c2ccco2)CC1 (stereo unspecified)	·	·	·	-0.9	4.7	0.7	·	6.3	3.3	-3.6%
CNc1nc(C23CC4CC(CC(C4)C2)C3)cs1	-37.2	-59.2	-7.8	-0.9	2.2	0.6	2.7	12.6	-6.9	4.1%
O=C(CNC(=O)c1ccco1)NCC(=O)OCc1cccc(C(=O)Oc2ccccc2)c1	·	·	·	·	-1.7	0.6	·	-28.6	-2.5	5.1%
Cc1cccn2c(=O)c(C=C(C#N)C#N)c(N3CCN(c4cccc(Cl)c4)CC3)nc12	-5.9	-11.2	0.3	4.9	5.3	1.4	-5.4	-6.3	-7.7	-1.3%
CCc1ccc(NC(=O)Cn2nnc(C(=O)NCc3cccs3)c2N)cc1	1.1	6.9	-1.7	-6.9	7.9	0.3	-2.6	5.2	-14.6	·
CCOC(=O)c1ccc(NC(=O)c2nc(SC)ncc2Cl)cc1	1.8	4.1	-0.7	1.4	-11.3	-0.4	0.0	10.9	-4.4	-8.4%
Cc1ccc(/C=[N+](\[O-])c2ccccc2C)o1	7.1	9.0	0.7	-3.7	6.0	-0.4	2.1	-23.7	3.5	·
CCOc1ccc(S(=O)(=O)NCCC(=O)N2CCCCCCC2)cc1	-4.2	-8.9	-2.4	-4.2	0.3	-0.8	0.1	6.3	-10.8	7.9%
Cc1cccc(C(=O)Nc2c(C(=O)N(C)C)cnn2-c2ccccc2)c1	3.2	-7.1	-2.3	-7.9	1.3	0.1	-0.2	-7.7	-0.6	·
COc1cc(C(=O)NCCC(=O)NC(C)C)cc(OC)c1OC	10.4	-3.2	-0.2	-3.7	4.6	0.9	-0.7	-4.3	3.9	·
O=C(CSc1ccc2nnc(-c3ccccn3)n2n1)Nc1ccccc1F	1.4	8.3	0.3	0.8	5.0	-0.3	-1.6	-3.8	-6.9	-17.2%
Cc1cccc(N2CCN(S(=O)(=O)c3ccc4c(c3)CCN4C(=O)CCC(=O)O)CC2C)c1 (stereo unspecified)	-9.3	3.9	-7.6	-8.7	0.2	-0.2	9.9	-6.5	4.0	5.5%
O=C(CSc1ccc(-c2ccc(-n3cccn3)cc2)nn1)Nc1ccc([N+](=O)[O-])cc1	16.1	16.2	1.8	·	-0.4	-0.5	-26.8	-0.8	-15.7	·
Next part.
SMILES	Ecoli rRNA inh	Ecoli rRNA inh OD600	Ecoli rRNA inh RFP	Beta apoptosis	RanGTP-Impb inh	A1 inh	AF4-AF9 inh	T cruzi inh	Calb FLC	Vif TR-FRET
CC(=O)c1ccc(S(=O)(=O)N(CCCO)Cc2cc3cc(C)ccc3[nH]c2=O)cc1	2.8	-0.3	1.0	1.7	0.2	-0.3	0.8	-1.3	-11.4	·
CC(C)Cc1nnc(NC(=O)CCC(=O)NC2CCCCCC2)s1	6.5	4.2	-2.5	0.0	-1.0	-0.3	-5.1	0.4	4.9	·
CCN1C(=O)[C@H]2[C@H]3[C@H](O)[C@H](O)C/C(=N\OC[C@@H](C)[C@H](OCc4ccccc4)C(C)C)[C@@H]3CC[C@H]2C1=O	·	·	·	-2.8	3.4	0.6	·	5.3	8.3	·
CC1CCCC(C)N1C(=O)c1cc2ncc(CCCl)cn2n1 (stereo unspecified)	·	·	·	-2.9	1.6	0.4	·	-11.4	-4.8	1.4%
COC(=O)C1=C(O)CSC1=Nc1ccccc1	·	·	·	-6.8	10.5	0.8	·	-16.4	24.2	5.7%
CCOc1ccc(NC(=O)CN(C)S(=O)(=O)c2cnc[nH]2)cc1	13.4	12.1	1.5	4.9	0.7	0.2	3.1	0.4	-5.3	3.1%
CC1(C)CC(=O)C=C(c2cccc(CO)c2)C1	2.9	-0.8	-12.6	0.7	·	0.2	-1.2	·	·	·
Cn1ncc([N+](=O)[O-])c1C(=O)Nc1ccccc1	4.6	-1.5	-1.1	-1.5	7.5	0.7	-4.7	4.5	-7.9	·
CCOc1ccc(NC(=O)c2ccc(NC(=O)CN3C(=O)C(=O)N(CC(C)C)C3=O)cc2)cc1	5.7	5.1	-2.6	·	-3.8	-0.6	-1.4	1.3	-2.7	-5.8%
